# High-throughput results deposited in PubChem BioAssay by Broad Institute.
# FGF22 binding – FGF22 (human) thermal shift binding | Q9HCT0 | recombinant FGF22 thermal shift, SYPRO orange fluorescence; percent of sucrose octasulfate shift, DMSO zero | calls only at 9.99 µM | 340,000 compounds, 1.5% hits;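 active = melting point raised past a set limit in the mean and every replicate; three in four hits are not shown here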
# Target sequence (Q9HCT0 whole entry, looked up): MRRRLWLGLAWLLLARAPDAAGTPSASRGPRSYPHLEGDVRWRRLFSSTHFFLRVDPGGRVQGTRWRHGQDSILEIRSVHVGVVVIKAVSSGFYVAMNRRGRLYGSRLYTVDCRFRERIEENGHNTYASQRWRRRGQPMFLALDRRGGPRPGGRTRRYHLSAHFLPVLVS
# rRNA inh HTS – inhibits bacterial ribosomal RNA function over humanized ribosomes; 350,000 compounds, 1.6% hits; GFP signal change (wild-type ribosome), % (no concentration beside the values); AID 720706; E. coli WT GFP vs humanized-ribosome RFP mutants, fluorescence, 24 h; active compounds read low; DMSO median 0, no signal -100;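 active = significant combined selectivity score with lowered wild-type GFP, culture density cut under 30%, mutant RFP and density less affected; inactive = any of these conditions unmet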; note: one replicate is shown; some compounds called inactive have numbers as strong as hits
# rRNA inh HTS OD600 – also measured in rRNA inh HTS; calls as there; OD600 change, %; measured here: OD600 growth;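 optical density of the mix in the first replicate; 0 = DMSO median and -100 = no signal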
# rRNA inh HTS RFP – recorded beside rRNA inh HTS, whose call it bears; RFP signal change, %; measured here: RFP humanized mutant strains;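 first replicate; 0 = DMSO median and -100 = no signal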
# * marks the source's active call; other numbers are inactive results; i = inactive. Some of the compounds tested; rates above refer to the full screens.
SMILES,FGF22 binding,rRNA inh HTS,rRNA inh HTS OD600,rRNA inh HTS RFP
O=C(CC1CC1)N[C@H]1CC[C@@H](CCNS(=O)(=O)c2ccc(F)cc2)O[C@H]1CO,i,2.6,4.5,-0.5
COc1ccc2c3c([nH]c2c1)[C@@H](CO)NCC31CCN(C(=O)Nc2ccc3c(c2)OCO3)CC1,i,-5.3,-6.2,2.5
Cc1cccc(-c2ccc([C@@H]3[C@@H](CO)N4CCCCN(C(=O)NC(C)C)C[C@@H]34)cc2)c1,i,-49.1,-68.4,4.0
COCC(=O)N1C[C@@H](C)[C@H](OC)CN(C)C(=O)c2cc(NC(=O)Nc3cccc(F)c3)ccc2OC[C@H]1C,i,-3.4,-5.1,0.3
CC(C)NC(=O)Nc1ccc2c(c1)C(=O)N([C@H](C)CO)C[C@H](C)[C@@H](CN(C)S(C)(=O)=O)OCCCC[C@H](C)O2,i,2.6,0.2,1.2
C[C@@H]1CN([C@H](C)CO)C(=O)c2cc(C#Cc3ccncc3)cnc2O[C@@H]1CN(C)C(=O)c1ccccc1F,i,7.7,14.3,-1.7
C/C=C/c1ccc2c(c1)O[C@@H](CN(C)CCC)[C@@H](C)CN([C@H](C)CO)S2(=O)=O,i,-3.1,-2.4,-0.2
C[C@@H]1CN([C@@H](C)CO)C(=O)Cc2cc(NC(=O)Nc3ccc(F)cc3)ccc2O[C@H]1CN(C)Cc1ccc(Oc2ccccc2)cc1,i,2.9,15.0,1.1
COc1ccc(S(=O)(=O)Nc2cccc3c2O[C@H](CN(C)S(=O)(=O)c2c(C)noc2C)[C@H](C)CN([C@@H](C)CO)C3=O)cc1,i,-2.1,0.6,-0.5
C[C@@H]1CCCCO[C@H](CN(C)S(=O)(=O)c2ccccc2)[C@@H](C)CN([C@@H](C)CO)C(=O)c2cc(NC(=O)CCC(F)(F)F)ccc2O1,i,-0.2,2.6,-1.0
C[C@@H]1CN([C@H](C)CO)C(=O)c2cc(NC(=O)CCN3CCOCC3)ccc2O[C@@H]1CN(C)CC1CCCCC1,i,0.6,0.7,0.0
C[C@H]1CN([C@@H](C)CO)C(=O)Cc2cc(NS(=O)(=O)c3cccs3)ccc2O[C@H]1CN(C)C(=O)Nc1ccc(F)cc1,i,5.2,6.8,0.9
C[C@H](c1ccccc1)N1C[C@@H](COCc2ccccc2)Oc2cccc(Oc3ccc(F)cc3)c2S1(=O)=O,i,6.8,5.8,3.1
C[C@@H]1CN([C@@H](C)CO)C(=O)c2cc(NC(=O)Nc3ccc(F)cc3)ccc2O[C@@H](C)CCCCO[C@@H]1CN(C)Cc1ccncc1,i,-1.1,-6.6,1.4
Cc1ccccc1S(=O)(=O)N1C[C@@H](O)COC[C@H]2O[C@H](CC(=O)NCc3ccccc3Cl)CC[C@@H]21,i,-2.1,3.6,-1.1
COc1ccc(C(=O)Nc2ccc3c(c2)OC[C@H](C)NC[C@@H](C)[C@@H](OC)CN(C)C3=O)cc1,i,-2.4,1.3,-0.1
C[C@H](CO)N1C[C@H](C)[C@H](CN(C)C(=O)c2ccccc2)Oc2ncc(C#Cc3ccccc3)cc2C1=O,i,-3.9,-18.4,4.6
CN1CCN(C(=O)C[C@H]2CC[C@H]3[C@@H](COC[C@@H](O)CN3C(=O)C3CCOCC3)O2)CC1,i,6.2,8.7,11.0
O=C(NC1CCCC1)N1CCCCN2[C@H](C1)[C@@H](c1ccc(/C=C/c3ccccc3)cc1)[C@@H]2CO,i,-52.8,-59.8,-6.9
CCCC#Cc1cnc2c(c1)C(=O)N([C@@H](C)CO)C[C@@H](C)[C@@H](CN(C)S(=O)(=O)c1ccccc1)O2,i,3.0,-8.4,0.2
COc1ccccc1-c1cn(CC[C@H]2CC[C@H](NC(=O)C3CCC3)[C@H](CO)O2)nn1,i,-1.3,-5.7,-2.4
O=S(=O)(c1ccccc1)N1CC[C@H]2[C@H](CO)Nc3ccc(C#Cc4cccc(F)c4)cc3[C@H]21,i,-0.3,17.9,-0.5
O=C(c1cccc(F)c1)N1C[C@@H]2[C@H](c3ccccc31)[C@H](CO)N2C(=O)Cc1ccccc1,i,-2.5,-0.9,2.1
CCCN1C[C@H](C)[C@@H](OC)CN(C)C(=O)c2cc(NC(=O)Nc3c(C)noc3C)ccc2OC[C@H]1C,i,-2.4,-2.7,-3.5
C[C@H]1CCCCO[C@H](CN(C)S(=O)(=O)c2ccc(Cl)cc2)[C@@H](C)CN([C@@H](C)CO)C(=O)c2cc(NC(=O)NC3CCCCC3)ccc2O1,i,-0.1,-0.7,-1.3

# Record cards, as listed above. Order of screens: FGF22 binding	rRNA inh HTS	rRNA inh HTS OD600	rRNA inh HTS RFP
# O=C(CC1CC1)N[C@H]1CC[C@@H](CCNS(=O)(=O)c2ccc(F)cc2)O[C@H]1CO is listed as i	2.6	4.5	-0.5
# Cc1cccc(-c2ccc([C@@H]3[C@@H](CO)N4CCCCN(C(=O)NC(C)C)C[C@@H]34)cc2)c1 is listed as i	-49.1	-68.4	4.0

# The list goes on.
SMILES,FGF22 binding,rRNA inh HTS,rRNA inh HTS OD600,rRNA inh HTS RFP
CCNC(=O)c1cc2c(c(-c3cccc(C4=CCCC4)c3)n1)[C@H](CCO)N([S@@](=O)C(C)(C)C)C2,i,6.7,-0.8,9.5
C[C@H](CO)N1C[C@H](C)[C@H](CN(C)Cc2ccc(C(=O)O)cc2)Oc2ccc(NS(=O)(=O)c3ccc(Cl)cc3)cc2C1=O,i,-1.2,1.1,-0.1
C[C@H]1CN([C@@H](C)CO)S(=O)(=O)c2ccc(C3=CCCC3)cc2O[C@@H]1CN(C)Cc1ccccc1,i,-4.5,-12.9,2.7
C[C@@H]1CCCCO[C@H](CN(C)C(=O)CCC(F)(F)F)[C@@H](C)CN([C@@H](C)CO)C(=O)c2cc(N(C)C)ccc2O1,i,0.2,11.3,3.4
C[C@@H]1CN([C@@H](C)CO)S(=O)(=O)c2ccc(-c3cncnc3)cc2O[C@@H]1CN(C)C(=O)NC1CCCC1,i,2.4,7.3,1.6
COc1ccccc1C#Cc1ccc([C@H]2[C@H](CO)N3CCCCN(S(C)(=O)=O)C[C@@H]23)cc1,i,6.5,-4.5,16.2
Cc1noc(C)c1S(=O)(=O)Nc1ccc2c(c1)C(=O)N([C@@H](C)CO)C[C@@H](C)[C@H](CN(C)C(=O)Nc1cccc3ccccc13)O2,i,2.5,-0.5,6.8
CO[C@@H]1CN(C)C(=O)c2ccc(NC(=O)C3CC3)cc2OC[C@@H](C)N(Cc2ccccc2)C[C@H]1C,i,-4.0,-19.2,4.9
C[C@H]1CN([C@@H](C)CO)S(=O)(=O)c2ccc(C3=CCCC3)cc2O[C@@H]1CN(C)Cc1cccnc1,i,-30.5,-61.4,9.3
C[C@@H]1CN([C@H](C)CO)C(=O)c2cccc(NS(=O)(=O)c3ccc(Cl)cc3)c2O[C@@H]1CN(C)S(=O)(=O)c1cccs1,i,-8.2,-31.3,3.7
CC(C)NC(=O)NCC[C@H]1CC[C@H](NC(=O)CN(C)C)[C@H](CO)O1,i,-1.0,-9.9,-0.1
C[C@H]1CN([C@@H](C)CO)C(=O)Cc2cc(NC(=O)Nc3cccc4ccccc34)ccc2O[C@H]1CN(C)C,i,0.3,6.8,0.1
COCC(=O)Nc1ccc2c(c1)C(=O)N(C)C[C@@H](OC)[C@H](C)CN(CCC(F)(F)F)[C@H](C)CO2,i,-1.9,-2.5,-0.2
C[C@@H]1CN([C@H](C)CO)C(=O)c2cc(C#CC3(O)CCCC3)cnc2O[C@@H]1CN(C)C(=O)Cc1ccccc1,i,3.1,6.5,-0.8
C[C@@H]1CN([C@H](C)CO)C(=O)Cc2cc(NC(=O)Nc3ccc4c(c3)OCO4)ccc2O[C@H]1CN(C)Cc1ccncc1,i,2.1,-0.8,0.2
CC(C)CC#Cc1cnc2c(c1)C(=O)N([C@@H](C)CO)C[C@H](C)[C@@H](CN(C)Cc1ccccc1C(=O)O)O2,i,3.0,8.6,-3.5
C[C@H](CO)N1C[C@H](C)[C@H](CN(C)C(=O)C2CCC2)Oc2cc(-c3cncnc3)ccc2S1(=O)=O,i,2.6,4.9,-2.5
C[C@H]1CN([C@@H](C)CO)C(=O)Cc2cc(NS(C)(=O)=O)ccc2O[C@H]1CN(C)Cc1ccc(C(=O)Nc2ccccc2N)cc1,i,-0.3,16.9,0.2
COc1ccc2c3c([nH]c2c1)[C@H](CO)N(C(=O)NC(C)C)CC31CCN(C(=O)c2cccnc2)CC1,i,1.8,13.9,-1.6
CO[C@@H]1CN(C)C(=O)c2cc(NC(=O)C3CCCC3)ccc2OC[C@@H](C)N(S(C)(=O)=O)C[C@@H]1C,i,0.2,-0.9,-0.6
CCC(=O)N(C)C[C@H]1Oc2cc(-c3cccc(F)c3)ccc2S(=O)(=O)N([C@H](C)CO)C[C@H]1C,i,-5.9,-9.7,-2.8
C[C@@H]1CN([C@H](C)CO)C(=O)Cc2cc(NS(=O)(=O)c3ccccc3)ccc2O[C@H]1CN(C)C(=O)Nc1cccc2ccccc12,i,4.9,3.9,4.1
C[C@@H]1CCCCO[C@H](CN(C)CC2CCCCC2)[C@H](C)CN([C@@H](C)CO)C(=O)c2cc(NC(=O)Cc3ccccc3)ccc2O1,i,-6.2,-5.4,-3.0
CO[C@@H]1CN(C)C(=O)c2ccc(NC(C)=O)cc2OC[C@H](C)N(Cc2ccccn2)C[C@H]1C,i,0.8,4.9,-2.8
CC(=O)N1CCCCN2[C@H](CO)[C@H](c3ccc(-c4cccc(C(=O)N(C)C)c4)cc3)[C@@H]2C1,i,5.4,12.1,-2.4

# Continued, starting with the last 3 of the part before.
SMILES,FGF22 binding,rRNA inh HTS,rRNA inh HTS OD600,rRNA inh HTS RFP
C[C@@H]1CCCCO[C@H](CN(C)CC2CCCCC2)[C@H](C)CN([C@@H](C)CO)C(=O)c2cc(NC(=O)Cc3ccccc3)ccc2O1,i,-6.2,-5.4,-3.0
CO[C@@H]1CN(C)C(=O)c2ccc(NC(C)=O)cc2OC[C@H](C)N(Cc2ccccn2)C[C@H]1C,i,0.8,4.9,-2.8
CC(=O)N1CCCCN2[C@H](CO)[C@H](c3ccc(-c4cccc(C(=O)N(C)C)c4)cc3)[C@@H]2C1,i,5.4,12.1,-2.4
C[C@@H]1CN([C@@H](C)CO)S(=O)(=O)c2ccc(C#CC3CC3)cc2O[C@@H]1CN(C)Cc1ccc(F)cc1,i,-11.9,-32.1,5.5
CCNC(=O)C[C@H]1C=C[C@@H](NC(=O)C2CC2)[C@H](CO)O1,i,2.4,-1.5,-2.8
CCCC#Cc1ccc([C@H]2[C@@H](C#N)N(C(=O)C3CCOCC3)[C@H]2CO)cc1,i,3.5,-2.3,-1.6
CO[C@@H]1CN(C)C(=O)c2cc(NC(=O)c3ccc(Oc4ccccc4)cc3)ccc2OC[C@@H](C)NC[C@H]1C,i,-5.8,-4.3,4.4
Cc1ccc(S(=O)(=O)Nc2cccc3c2O[C@@H](CN(C)Cc2ccc(C(=O)Nc4ccccc4N)cc2)[C@@H](C)CN([C@@H](C)CO)C3=O)cc1,i,2.1,1.7,0.0
C[C@@H]1CN([C@@H](C)CO)C(=O)c2cccc(NC(=O)CCCCCC(=O)Nc3ccccc3N)c2O[C@H]1CN(C)Cc1ccncc1,i,-0.5,-4.2,-2.0
O=C(Nc1cc(F)ccc1F)N[C@@H]1C=C[C@H](CC(=O)N2CCc3ccccc3C2)O[C@H]1CO,i,-11.4,-13.5,-1.0
COCC#Cc1cnc2c(c1)C(=O)N([C@H](C)CO)C[C@@H](C)[C@H](CN(C)C(=O)Cc1ccncc1)O2,i,0.1,-0.9,2.6
COc1ccc(NC(=O)Nc2ccc3c(c2)C(=O)N([C@H](C)CO)C[C@@H](C)[C@H](CN(C)Cc2ccccc2)OCCCC[C@H](C)O3)cc1,i,0.6,-13.5,14.6
CCCNC(=O)N1CC2(C1)CN(C(C)=O)[C@H](CO)c1c2c2ccc(OC)cc2n1C,i,2.4,4.3,-2.4
COCCNC(=O)C[C@H]1C[C@@H]2c3cc(NC(=O)C4CCC4)ccc3O[C@@H]2[C@H](CO)O1,i,1.6,3.0,-2.6
C[C@@H]1CN([C@@H](C)CO)C(=O)Cc2cc(NC(=O)CCC(F)(F)F)ccc2O[C@@H]1CN(C)Cc1ccc(Oc2ccccc2)cc1,i,-5.3,-11.6,-0.6
CCCN(C)C[C@H]1OCCCC[C@@H](C)Oc2ccc(NS(=O)(=O)c3ccc(F)cc3)cc2C(=O)N([C@@H](C)CO)C[C@H]1C,i,1.3,5.5,1.9
C[C@@H]1CN([C@@H](C)CO)C(=O)c2cc(-c3ccc(F)cc3)cnc2O[C@H]1CN(C)CC1CCCCC1,i,0.9,-3.6,0.7
C[C@H](CO)N1C[C@H](C)[C@H](CN(C)C(=O)C2CCCCC2)Oc2ncc(C#Cc3cccc(F)c3)cc2C1=O,i,-7.5,-32.8,23.9
O=C(C[C@@H]1CC[C@H]2[C@@H](COC[C@H](O)CN2Cc2ccc(Oc3ccccc3)cc2)O1)N1CCCCC1,i,-20.9,-60.5,-0.8
